Vaccinia stage: blocks a specific stage of Vaccinia orthopoxvirus infection. Vaccinia-infected cells, mCherry/Venus stage reporter fluorescence; stronger effect = lower value; some inactives read as strong as hits. activity change (mCherry), % (test concentration not listed). hit rate 0.01% among 89,000;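 active = mCherry past -33% and 40 or more points under the early reporter, replicates agreeing; inconclusive = past -33% without that gap or agreement; tested in A549 cells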;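 note: scaled between vehicle wells and reference inhibitor wells; 23 nL library stock went into each well; one replicate is shown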
Vaccinia stage Venus: also measured in Vaccinia stage; calls as there; activity change (Venus), %; measured here: Venus reporter, other viral stage;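 negative = less Venus signal; first of two replicates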
Starred values were filed as active, the others as inactive.

`Cc1ccc(S(=O)(=O)N(C)C[C@@H]2Oc3c(NC(=O)CCCCCC(=O)Nc4ccccc4N)cccc3C(=O)N([C@H](C)CO)C[C@H]2C)cc1` gave Vaccinia stage -6.4 and Vaccinia stage Venus 6.5.
Screening Cc1ccc(S(=O)(=O)Nc2ccc3c(c2)C(=O)N([C@@H](C)CO)C[C@@H](C)[C@@H](CN(C)Cc2ccncc2)OCCCC[C@H](C)O3)cc1 returned Vaccinia stage -14.2 and Vaccinia stage Venus -11.3.
For C[C@H]1CN([C@@H](C)CO)C(=O)c2cc(NC(=O)NC3CCCCC3)ccc2O[C@@H]1CN(C)Cc1ccc(C(F)(F)F)cc1 the results were Vaccinia stage -30.1 and Vaccinia stage Venus -22.7.
For Cc1ccc(S(=O)(=O)Nc2cccc3c2O[C@H](CN(C)Cc2ccncc2)[C@H](C)CN([C@H](C)CO)C3=O)cc1 the results were Vaccinia stage 1.6 and Vaccinia stage Venus 3.9.
For C[C@@H]1CCCCO[C@@H](CN(C)S(C)(=O)=O)[C@H](C)CN([C@H](C)CO)C(=O)c2cc(NC(=O)Cc3ccccc3)ccc2O1 the results were Vaccinia stage 13.4 and Vaccinia stage Venus 11.5.
Screening Cn1cnc(S(=O)(=O)N2CC[C@@H]3[C@@H](CO)Nc4ccc(-c5ccccc5)cc4[C@@H]32)c1 returned Vaccinia stage 4.4 and Vaccinia stage Venus 9.6.
`O=C(c1ccccc1F)N1CC[C@@H]2[C@H](CO)Nc3ccc(C#Cc4ccccc4)cc3[C@@H]21` gave Vaccinia stage -7.3 and Vaccinia stage Venus -3.8.
`C[C@H](NC(=O)C[C@H]1C=C[C@H](NC(=O)C2CC2)[C@H](CO)O1)c1ccccc1` gave Vaccinia stage 12.1 and Vaccinia stage Venus -2.8.
For C[C@H]1CN([C@@H](C)CO)C(=O)c2ccccc2-c2ccccc2CO[C@H]1CN(C)C(=O)CCC(F)(F)F the results were Vaccinia stage 9.9 and Vaccinia stage Venus 9.5.
Screening O=C1CN(S(=O)(=O)Cc2ccccc2)C[C@H]2[C@H](c3ccc(C#Cc4cccc(F)c4)cc3)[C@H](CO)N12 returned Vaccinia stage inconclusive.
Screening O=C(NCC[C@H]1CC[C@@H](NC(=O)C2CCCC2)[C@@H](CO)O1)c1cnccn1 returned Vaccinia stage -6.5 and Vaccinia stage Venus 4.6.
Cc1cc(C(=O)Nc2cccc3c2O[C@H](CN(C)S(C)(=O)=O)[C@@H](C)CN([C@H](C)CO)C3=O)n(C)n1 was read as Vaccinia stage 11.2 and Vaccinia stage Venus 5.1.
For C#Cc1ccc([C@H]2C=C(C(=O)O)O[C@@H](OCC)[C@@H]2CCCO)cc1 the results were Vaccinia stage 14.0 and Vaccinia stage Venus 17.1.
Cc1ccc(S(=O)(=O)Nc2cccc3c2O[C@H](CN(C)Cc2ccc(C(=O)O)cc2)[C@H](C)CN([C@H](C)CO)C3=O)cc1 was read as Vaccinia stage 21.3 and Vaccinia stage Venus 14.3.
COCC(=O)N(C)C[C@@H]1Oc2ncc(-c3cccc(OC)c3)cc2C(=O)N([C@H](C)CO)C[C@@H]1C was read as Vaccinia stage 24.9 and Vaccinia stage Venus 19.9.
`COc1ccc(S(=O)(=O)N(C)C[C@H]2OCCCC[C@H](C)Oc3ccc(NS(=O)(=O)c4ccccc4)cc3C(=O)N([C@@H](C)CO)C[C@@H]2C)cc1` gave Vaccinia stage inconclusive.
`COc1cccc(NC(=O)N(C)C[C@H]2Oc3ncc(C#Cc4cccnc4)cc3C(=O)N([C@H](C)CO)C[C@H]2C)c1` gave Vaccinia stage -4.8 and Vaccinia stage Venus -2.3.
For C[C@H](CO)N1C[C@H](C)[C@H](CN(C)C)OCCCC[C@H](C)Oc2ccc(N(C)C)cc2C1=O the results were Vaccinia stage -8.2 and Vaccinia stage Venus -4.0.
For COC(=O)C[C@H]1CC[C@H]2[C@H](COc3ccc(NC(=O)Nc4ccccc4C)cc3C(=O)N2C)O1 the results were Vaccinia stage 1.0 and Vaccinia stage Venus 8.0.
Screening C[C@@H]1CN([C@@H](C)CO)C(=O)Cc2cc(NC(=O)CCN3CCOCC3)ccc2O[C@H]1CN(C)S(C)(=O)=O returned Vaccinia stage 1.0 and Vaccinia stage Venus 0.6.
C[C@@H](NC(=O)C[C@H]1C[C@@H]2c3cc(NC(=O)c4ccc5c(c4)OCO5)ccc3O[C@@H]2[C@@H](CO)O1)c1ccccc1 was read as Vaccinia stage inconclusive.
`C[C@@H]1CN([C@H](C)CO)C(=O)c2cc(-c3ccccc3)cnc2O[C@H]1CN(C)Cc1cccnc1` gave Vaccinia stage 18.6 and Vaccinia stage Venus 3.4.
For NC(=O)[C@@H]1[C@H]2C(=O)O[C@H](c3ccccc3)[C@H](c3ccccc3)N2[C@H](c2ccccc2OCCO)[C@@]12C(=O)Nc1ccc(C#CCCO)cc12 the results were Vaccinia stage -10.8 and Vaccinia stage Venus -3.4.
Screening O=C(C[C@H]1CC[C@H](NC(=O)NC2CCCC2)[C@@H](CO)O1)NCc1ccc(F)cc1 returned Vaccinia stage 3.3 and Vaccinia stage Venus 7.8.

Arranged by molecular weight (lowest first): part of the list above.
For C#Cc1ccc([C@H]2C=C(C(=O)O)O[C@@H](OCC)[C@@H]2CCCO)cc1 the results were Vaccinia stage 14.0 and Vaccinia stage Venus 17.1.
Screening O=C(C[C@H]1CC[C@H](NC(=O)NC2CCCC2)[C@@H](CO)O1)NCc1ccc(F)cc1 returned Vaccinia stage 3.3 and Vaccinia stage Venus 7.8.
`C[C@@H]1CN([C@H](C)CO)C(=O)c2cc(-c3ccccc3)cnc2O[C@H]1CN(C)Cc1cccnc1` gave Vaccinia stage 18.6 and Vaccinia stage Venus 3.4.
C[C@@H](NC(=O)C[C@H]1C[C@@H]2c3cc(NC(=O)c4ccc5c(c4)OCO5)ccc3O[C@@H]2[C@@H](CO)O1)c1ccccc1 was read as Vaccinia stage inconclusive.
Screening C[C@@H]1CN([C@@H](C)CO)C(=O)Cc2cc(NC(=O)CCN3CCOCC3)ccc2O[C@H]1CN(C)S(C)(=O)=O returned Vaccinia stage 1.0 and Vaccinia stage Venus 0.6.
`COc1cccc(NC(=O)N(C)C[C@H]2Oc3ncc(C#Cc4cccnc4)cc3C(=O)N([C@H](C)CO)C[C@H]2C)c1` gave Vaccinia stage -4.8 and Vaccinia stage Venus -2.3.
Cc1ccc(S(=O)(=O)Nc2cccc3c2O[C@H](CN(C)Cc2ccc(C(=O)O)cc2)[C@H](C)CN([C@H](C)CO)C3=O)cc1 was read as Vaccinia stage 21.3 and Vaccinia stage Venus 14.3.

Further entries follow.
Screening C[C@@H]1CN([C@H](C)CO)S(=O)(=O)c2ccc(C#CC(C)(C)O)cc2O[C@H]1CN(C)CC1CC1 returned Vaccinia stage 0.0 and Vaccinia stage Venus -3.5.
Screening Cc1ccc(-c2ccc([C@@H]3[C@H](CO)N4CCCCN(Cc5cncnc5)C[C@@H]34)cc2)cc1 returned Vaccinia stage -30.6 and Vaccinia stage Venus -27.4.
For C[C@@H]1CN([C@H](C)CO)C(=O)Cc2cc(NC(=O)C3CC3)ccc2O[C@H]1CN(C)Cc1ccccc1 the results were Vaccinia stage -4.2 and Vaccinia stage Venus -5.9.
For CO[C@H]1CN(C)C(=O)c2ccc(NC(=O)Nc3cccc(F)c3)cc2OC[C@H](C)N(C(=O)Nc2c(C)noc2C)C[C@H]1C the results were Vaccinia stage -3.5 and Vaccinia stage Venus -8.9.
For C[C@@H]1CCCCO[C@@H](CN(C)Cc2ccc(C(F)(F)F)cc2)[C@@H](C)CN([C@@H](C)CO)C(=O)c2cc(NS(=O)(=O)c3ccccc3)ccc2O1 the results were Vaccinia stage inconclusive.
Screening CO[C@H]1CN(C)C(=O)c2cc(NC(=O)NC(C)C)ccc2OC[C@H](C)N(Cc2ccc(-c3ccccn3)cc2)C[C@H]1C returned Vaccinia stage -11.3 and Vaccinia stage Venus -12.5.
`C[C@@H]1CCCCO[C@@H](CN(C)S(=O)(=O)c2ccccc2)[C@@H](C)CN([C@@H](C)CO)C(=O)c2cc(NC(=O)Cc3ccccc3)ccc2O1` gave Vaccinia stage -0.5 and Vaccinia stage Venus -2.5.
Screening O=C(C[C@H]1CC[C@H](NS(=O)(=O)c2ccc(F)cc2)[C@H](CO)O1)NCc1ccc(Cl)c(Cl)c1 returned Vaccinia stage -0.4 and Vaccinia stage Venus 5.6.
`C[C@@H]1CN([C@H](C)CO)C(=O)c2cc(NS(=O)(=O)c3cccs3)ccc2O[C@H]1CN(C)C(=O)NC1CCCCC1` gave Vaccinia stage 11.5 and Vaccinia stage Venus 10.8.
CS(=O)(=O)N1[C@H](CO)[C@@H](c2ccccc2)C12CN(Cc1ccccn1)C2 was read as Vaccinia stage 10.9 and Vaccinia stage Venus 15.3.
Screening C[C@@H]1CN([C@H](C)CO)S(=O)(=O)c2ccc(-c3cccnc3)cc2O[C@H]1CN(C)CC1CC1 returned Vaccinia stage -1.6 and Vaccinia stage Venus 3.6.
Screening COc1ccccc1-c1ccc([C@H]2[C@@H](CO)N3CCCCN(C(=O)NC4CCCC4)C[C@H]23)cc1 returned Vaccinia stage inconclusive.
Screening C[C@@H]1CN([C@@H](C)CO)C(=O)CCCn2nncc2CO[C@@H]1CN(C)Cc1ccc(Cl)c(Cl)c1 returned Vaccinia stage inconclusive.
For C[C@H]1CN([C@@H](C)CO)C(=O)c2cc(NC(=O)CCN3CCOCC3)ccc2O[C@H]1CN(C)S(=O)(=O)c1cn(C)cn1 the results were Vaccinia stage 11.7 and Vaccinia stage Venus 12.8.
C[C@H]1CN([C@@H](C)CO)S(=O)(=O)c2ccc(-c3cccc(F)c3)cc2O[C@@H]1CN(C)C(=O)c1cccc(F)c1 was read as Vaccinia stage inconclusive.
Screening Cc1noc(C)c1NC(=O)N(C)C[C@H]1OCCCC[C@@H](C)Oc2ccc(NS(=O)(=O)c3ccc(Cl)cc3)cc2C(=O)N([C@@H](C)CO)C[C@@H]1C returned Vaccinia stage 1.8 and Vaccinia stage Venus -5.4.
Screening COCC(=O)Nc1ccc2c(c1)C(=O)N(C)[C@H]1CC[C@@H](CC(=O)Nc3ccccc3)O[C@@H]1CO2 returned Vaccinia stage 9.3 and Vaccinia stage Venus 10.3.
C[C@@H]1CCCCO[C@@H](CN(C)C(=O)Nc2cccc3ccccc23)[C@H](C)CN([C@@H](C)CO)C(=O)c2cc(NC(=O)Nc3cccc4ccccc34)ccc2O1 was read as Vaccinia stage 13.5 and Vaccinia stage Venus 9.1.
Screening CS(=O)(=O)N1CC(=O)N2[C@H](C1)[C@@H](c1ccc(Br)cc1)[C@@H]2CO returned Vaccinia stage 5.1 and Vaccinia stage Venus 4.0.
`C[C@@H]1CN([C@H](C)CO)C(=O)c2cc(NC(=O)Cn3cnnn3)ccc2O[C@@H]1CN(C)Cc1ccc(C(F)(F)F)cc1` gave Vaccinia stage 1.9 and Vaccinia stage Venus 2.8.
`C[C@@H]1CN([C@@H](C)CO)C(=O)c2cc(C3=CCCC3)cnc2O[C@@H]1CN(C)C(=O)c1ccccc1` gave Vaccinia stage 2.4 and Vaccinia stage Venus 5.9.
`CCCNC(=O)Nc1ccc2c(c1)C(=O)N(C)C[C@@H](OC)[C@H](C)CN(C(=O)C1CCC1)[C@H](C)CO2` gave Vaccinia stage -8.2 and Vaccinia stage Venus -5.8.
Cc1noc(C)c1NC(=O)N(C)C[C@H]1OCCCC[C@@H](C)Oc2ccc(NC(=O)c3ccncc3)cc2C(=O)N([C@@H](C)CO)C[C@@H]1C was read as Vaccinia stage 39.2 and Vaccinia stage Venus 23.7.
Screening O=C(Cc1ccccn1)NCC[C@@H]1CC[C@@H](NC(=O)Nc2ccccc2)[C@H](CO)O1 returned Vaccinia stage 4.6 and Vaccinia stage Venus 0.2.
`CO[C@H]1CN(C)C(=O)c2ccc(NC(=O)Cc3ccccc3)cc2OC[C@@H](C)N(C(C)=O)C[C@@H]1C` gave Vaccinia stage 11.9 and Vaccinia stage Venus 10.3.
`CN1CCN(C(=O)C[C@H]2C[C@H]3c4cc(NC(=O)C5CCC5)ccc4O[C@H]3[C@@H](CO)O2)CC1` gave Vaccinia stage 9.3 and Vaccinia stage Venus 12.6.
Screening COc1ccc(C#Cc2cnc3c(c2)C(=O)N([C@H](C)CO)C[C@H](C)[C@H](CN(C)C(=O)Nc2ccccc2)O3)cc1OC returned Vaccinia stage -21.3 and Vaccinia stage Venus -18.8.
CCCNC(=O)N[C@@H]1CC[C@H](CCn2cc(C3CC3)nn2)O[C@H]1CO was read as Vaccinia stage 2.7 and Vaccinia stage Venus -0.9.
For CO[C@H]1CN(C)C(=O)c2ccc(NS(=O)(=O)C3CCCCC3)cc2OC[C@@H](C)NC[C@H]1C the results were Vaccinia stage 4.6 and Vaccinia stage Venus 7.1.
For CCC(=O)Nc1ccc2c(c1)C(=O)N(C)C[C@H](OC)[C@@H](C)CN(C(=O)NC(C)C)[C@@H](C)CO2 the results were Vaccinia stage 1.1 and Vaccinia stage Venus 0.2.
For C[C@@H]1CN([C@@H](C)CO)C(=O)c2cc(-c3ccccc3)cnc2O[C@@H]1CN(C)C(=O)c1ccccn1 the results were Vaccinia stage 1.1 and Vaccinia stage Venus 7.6.
Screening C[C@H](NC(=O)C[C@@H]1C=C[C@@H](NC(=O)c2cccnc2)[C@H](CO)O1)c1ccccc1 returned Vaccinia stage 7.3 and Vaccinia stage Venus 7.2.
For CCC(=O)Nc1ccc2c(c1)C(=O)N(C)[C@@H]1CC[C@H](CC(=O)N3CCCCC3)O[C@H]1CO2 the results were Vaccinia stage 3.2 and Vaccinia stage Venus 10.9.
C[C@H](CO)N1C[C@H](C)[C@@H](CN(C)Cc2ccc(Oc3ccccc3)cc2)OCc2ccccc2-c2ccccc2C1=O was read as Vaccinia stage inconclusive.
For N#C[C@H]1[C@@H](c2ccccc2)[C@H](CO)N1S(=O)(=O)c1ccc(F)cc1 the results were Vaccinia stage 10.1 and Vaccinia stage Venus 2.6.
`COCC(=O)N(C)C[C@H]1Oc2cc(-c3ccc(F)cc3)ccc2S(=O)(=O)N([C@H](C)CO)C[C@H]1C` gave Vaccinia stage 4.8 and Vaccinia stage Venus 13.3.

An excerpt; the hit share may differ from the screen's.
